Screens from PubChem BioAssay.
Vif TR-FRET – inhibitors of Vif binding to APOBEC3G peptide, primary screen, biochemical, TR-FRET, GST-Vif 1-94, biotin-A3G peptide, dose response retest (AID 1117319). TR-FRET GST-Vif / biotin-A3G peptide binding; higher % means a stronger effect; test concentration not given here; strong numbers were not always called active. 260,000 compounds, 0.57% hits. one-dose inhibition, %; IC50 in µM for titrated hits;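 active = above the screen mean plus three standard deviations and confirmed in dose response; inconclusive = results disagree or hit not tested in dose response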;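 note: Vif residues 1-94 fused to GST binding biotinylated APOBEC3G peptide 110-148; 0% = full assay without inhibitor and 100% = GST in place of GST-Vif; retest series ran down from 100 µM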
RanGTP-Impb inh – disruptors of Ran-importin-beta complex formation – biochemical, FRET, CFP-Ran, YFP-importin-beta, homogeneous, primary screen; cell-free CFP-Ran/YFP-importin-beta FRET ratio; 300,000 compounds, 1.1% hits; AID 2216; inhibition, % (concentration not given with the values);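 active = most replicates above 15%; inconclusive = exactly half above 15%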;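 note: 0% = DMSO wells and 100% = Ran loaded with GDP instead of GTP; wells of about 40 µL received 100 nL stock; the first replicate is given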
A1 inh – inhibitors of the anti-apoptotic protein A1, read as caspase activation | MEF A1-2A-BIM cells, Caspase-Glo 3/7 luminescence, 3 h; percent of clofoctol response, vehicle zero | caspase activation, % (test concentration not listed) | 330,000 compounds, 0.066% hits | AID 2462;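 active = over half of replicate activation scores above 10%, or exactly half above 10 with the replicate mean above 10; inconclusive = replicate mean below 10 yet half the replicates above 10; inactive = over half of replicates below 10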;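 note: wells of about 30 µL received 50 nL stock; many hits fall short of the cut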
Calb FLC – C. albicans growth modulation with fluconazole | AID 1979 | C. albicans CaCi-2 (fluconazole-resistant clinical isolate) + fluconazole, Alamar Blue growth, 48 h | growth inhibition, % (no concentration beside the values) | 300,000 compounds, 0.57% hits;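 active = most replicates above 75%; inconclusive = exactly half above 75%; inactive = most below 75%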;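 note: all wells also contain fluconazole at 8 µg/ml as a sub-toxic cotreatment; 0% = median of DMSO wells and 100% = median of geldanamycin control wells; wells of about 8 µL received 7.5 nL stock; the first replicate is given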
Beta apoptosis – blocks beta cell apoptosis; INS-1E cytokine-induced death, ATP luminescence, 48 h; percent of positive-control rescue, neutral wells zero; protection from apoptosis, % (concentration not given with the values); 300,000 compounds, 0.8% hits; AID 435005;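 active = all replicates at 75% or more, or half of them and the mean; inconclusive = half reach 75% but not the mean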;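 note: 0% = cytokine-treated negative control wells and 100% = positive control rescue; higher means more ATP so stronger rescue from cytokine killing; wells of about 40 µL received 100 nL stock; the first replicate is given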
T cruzi inh – T. cruzi replication inhibition; inhibition, % (test concentration not listed); AID 1885; 300,000 compounds, 1.4% hits; T. cruzi beta-gal in NIH3T3, luminescence, 90 h;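 active = mean inhibition across valid replicates above about 55%, limit read from the data; inconclusive = mean below that limit but half or more replicates reach it; inactive = mean below it, under half of replicates reach it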;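 note: signal also drops with host cell toxicity which is not excluded here; 0% = plate median of DMSO wells and 100% = zero luminescence signal; higher percent means less beta-gal luminescence so fewer parasites; stock transfer was 50 nL into about 50 µL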
rRNA inh HTS – selective bacterial rRNA inhibition in E. coli; E. coli WT GFP vs humanized-ribosome RFP mutants, fluorescence, 24 h; stronger effect = lower value; DMSO median 0, no signal -100; GFP signal change (wild-type ribosome), % (no concentration beside the values); 350,000 compounds, 1.6% hits; AID 720706;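 active = significant combined selectivity score with lowered wild-type GFP, culture density cut under 30%, mutant RFP and density less affected; inactive = any of these conditions unmet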; note: one replicate is shown; some compounds called inactive have numbers as strong as hits
MLL AF4-AF9 inh – inhibitors of human MLL-AF4/AF9 interaction. AlphaScreen, biotin-AF4 peptide binding to FLAG-AF9. inhibition, % at 10 µM. 350,000 compounds, 0.47% hits. AID 651704;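 active = every replicate reaching a set inhibition limit, whatever the replicate mean, cut at about 25% in these data; inconclusive = mean inhibition reaches that limit but some replicates miss it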;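 note: 0% = plate neutral control median and 100% = total signal loss; the record names both 10 and 1 µM as test concentration; the first replicate is given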
Target sequence (P42568 whole entry, looked up): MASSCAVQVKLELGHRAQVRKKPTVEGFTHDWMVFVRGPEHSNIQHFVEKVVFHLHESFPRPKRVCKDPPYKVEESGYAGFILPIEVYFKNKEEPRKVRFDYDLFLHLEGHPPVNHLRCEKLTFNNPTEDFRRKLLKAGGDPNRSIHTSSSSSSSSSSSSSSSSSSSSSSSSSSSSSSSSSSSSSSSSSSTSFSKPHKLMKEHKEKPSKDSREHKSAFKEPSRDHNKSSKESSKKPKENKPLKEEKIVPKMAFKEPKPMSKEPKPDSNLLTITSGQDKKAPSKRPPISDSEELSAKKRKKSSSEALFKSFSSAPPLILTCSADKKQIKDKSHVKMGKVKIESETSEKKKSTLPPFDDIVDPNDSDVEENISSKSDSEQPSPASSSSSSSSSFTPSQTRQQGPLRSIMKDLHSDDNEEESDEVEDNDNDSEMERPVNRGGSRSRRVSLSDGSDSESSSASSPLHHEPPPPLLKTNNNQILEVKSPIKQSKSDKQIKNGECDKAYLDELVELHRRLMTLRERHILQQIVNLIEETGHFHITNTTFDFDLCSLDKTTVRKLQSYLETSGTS
rRNA inh HTS OD600 – further read-out of rRNA inh HTS, marked with its call; OD600 change, %; measured here: OD600 growth;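 optical density of the mix in the first replicate; 0 = DMSO median and -100 = no signal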
rRNA inh HTS RFP – further read-out of rRNA inh HTS, marked with its call; RFP signal change, %; measured here: RFP humanized mutant strains;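 first replicate; 0 = DMSO median and -100 = no signal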
An asterisk follows results filed as active; ? = inconclusive; nt = not tested or not shown.

SMILES	Vif TR-FRET	RanGTP-Impb inh	A1 inh	Calb FLC	Beta apoptosis	T cruzi inh	rRNA inh HTS	rRNA inh HTS OD600	rRNA inh HTS RFP	MLL AF4-AF9 inh
COc1cc(/C=N/NC(=O)Cc2ccc(Br)cc2)cc(OC)c1O	-7.5%	-3.5	-0.3	?	-3.6	-14.8	3.4	-3.1	1.2	-1.1
Cc1ccc(NC(=O)C2(c3ccccc3)CCCC2)nc1	-1.5%	2.3	-0.1	6.6	-2.3	-6.7	nt	nt	nt	nt
Nc1nnc(SCC(=O)NC2CCCCC2)n1-c1ccccc1	1.8%	-2.1	1.8	2.5	1.6	-4.0	nt	nt	nt	nt
CC1CCCC(NC(=O)COC(=O)c2sc3ccccc3c2Cl)C1C (stereo unspecified)	-0.9%	5.5	-0.5	-1.8	-3.1	-13.1	6.0	6.3	-1.4	-3.4
CCOC(=O)c1cccc(-c2c(-c3ccccc3)ncc3cc(OC)c(OC)cc23)c1	nt	nt	-1.9	nt	-7.1	nt	-5.8	8.2	14.9	5.4
Cc1ccc(NC(=O)COc2ccccc2)cc1Cl	nt	0.3	0.9	1.3	-1.9	0.7	nt	nt	nt	nt
CCCn1c(SCC(=O)Nc2cccc(S(=O)(=O)N3CCCC3)c2)n[nH]c1=O	-4.1%	-0.9	1.8	-13.0	-9.8	-4.7	-2.6	-4.3	-4.1	-1.2
Cc1ccc(-c2nc(COC(=O)c3c(C)noc3C)cs2)cc1	-5.4%	5.3	-0.9	5.5	32.7	-5.9	nt	nt	nt	nt
S=c1[nH]nc(C2CCCCC2)n1/N=C/c1ccc(Br)s1	0.3%	?	-1.3	89.6*	3.5	9.4	nt	nt	nt	nt
CCCCCC1CC(CC(=O)Nc2nncs2)C(=O)O1 (stereo unspecified)	nt	-1.5	0.2	0.9	-1.3	-16.2	nt	nt	nt	nt
CCN(C(=O)COC(=O)C1=COCCO1)c1ccccc1	-4.8%	nt	0.5	nt	0.2	nt	0.0	3.1	-1.4	-1.0
Cc1ccc(C2=NNC(=O)C(c3c[nH]c4ccccc34)C2)cc1 (stereo unspecified)	-5.6%	4.6	0.5	60.2	nt	6.2	18.9	13.5	0.1	4.1
COc1ccc(N2C(=O)CC(S/C(N)=N/N=C/c3ccnc4ccccc34)C2=O)cc1 (stereo unspecified)	nt	-2.0	-0.8	-2.1	3.5	-10.6	nt	nt	nt	nt
O=C(O)C(Cc1c[nH]c2ccccc12)N1CCS(=O)(=O)CC1 (stereo unspecified)	5.7%	?	-0.7	49.6	1.4	-6.2	12.9	9.7	-0.3	-0.4
O=C(Cn1ncc2c3ccccc3n(Cc3ccccc3F)c2c1=O)NCC1CCCO1 (stereo unspecified)	nt	1.8	0.1	14.4	2.0	23.4	8.4	17.6	1.3	-1.3
COC(=O)c1ccc(NC(=O)COc2coc(CN3CCc4ccccc43)cc2=O)cc1	nt	-1.9	0.7	1.1	-1.2	-6.3	10.5	6.7	0.4	-2.3
CN(CC(=O)Nc1cccc(F)c1)C(=O)c1ccc(N2CCCCC2)c([N+](=O)[O-])c1	-11.3%	0.4	-0.5	-1.7	nt	8.3	-5.1	7.8	-3.8	6.1
CN(C)c1ccc(/C=C2\C(=N)N3C(=NC2=O)Sc2cc(S(C)(=O)=O)ccc23)cc1	-44.5%	-1.9	0.2	1.8	nt	4.9	nt	nt	nt	nt
Cc1ccc(C2=NS(=O)(=O)N(C)C(C(=O)Nc3cc(C)n(CC(=O)N4CCCCC4)n3)=C2)cc1	nt	-5.1	-0.7	-5.2	-1.2	-2.8	-10.1	1.1	0.8	4.3
O=C(CCNC(=O)c1ccc([N+](=O)[O-])cc1)Nc1ccc(Cl)c(S(=O)(=O)N2CCOCC2)c1	-7.2%	nt	1.1	nt	0.9	nt	-9.6	-3.5	-3.8	?
COc1ccc(Cl)cc1S(=O)(=O)N1CCN=C1Cc1ccccc1	nt	-0.4	-1.2	2.5	1.8	-12.7	1.2	-2.0	0.1	1.5
CSc1nc(NS(=O)(=O)c2cc(Br)ccc2Br)cc(=O)[nH]1	nt	1.2	-0.3	10.5	3.0	4.6	nt	nt	nt	0.8
O=C(NCc1ccco1)C1(c2ccc(Br)cc2)CCCC1	3.7%	1.4	0.7	-20.5	-1.0	15.1	nt	nt	nt	nt
COc1ccc(CN(C)CC(=O)N(C)CC(=O)Nc2ccccc2Br)cc1F	-14.2%	nt	0.6	nt	-1.5	nt	nt	nt	nt	-0.6
CCOc1ccc(-n2c(C)cc(/C=C3/C(=N)N4C(=NC3=O)SN=C4S(C)(=O)=O)c2C)cc1	13.2%	?	-0.3	-4.7	-3.4	-3.9	-28.0	-39.6	6.9	2.4
C/C(=N\NC(=O)c1c(Cl)cnn1C)c1cccc(NC(=O)c2ccc(C)cc2)c1	9.0%	3.3	0.4	11.7	2.9	1.2	-5.4	-4.5	2.0	-0.1
Cc1cc(OC(=O)c2ccc(Cl)cc2Cl)c([N+](=O)[O-])c(=O)[nH]1	nt	2.0	0.2	-3.0	-1.7	-8.2	-1.4	7.0	-0.8	36.9*
Cc1ccc(S(=O)(=O)NCCSc2ncccn2)cc1	-1.3%	1.8	-0.4	23.6	-2.5	-3.9	14.9	4.2	-0.6	-0.4
Cc1ccc(S(=O)(=O)Nc2ccnc3ccccc23)cc1	-7.5%	5.0	0.1	1.0	-4.6	-13.2	nt	nt	nt	nt
CC(NS(=O)(=O)c1ccc2c(c1)C(C)(C)C(=O)N2C)c1ccccc1 (stereo unspecified)	0.4%	2.9	-0.3	4.1	-4.3	-11.4	1.7	4.4	0.3	0.4
O=C(CCC1CCCN(Cc2ccc3c(c2)CCO3)C1)NCc1ccc(F)c(F)c1 (stereo unspecified)	-2.2%	0.7	1.2	6.8	3.9	63.4*	10.2	-1.7	4.1	1.4
CC(CN1CCCCC1)OC(=O)COc1ccc(Br)cc1 (stereo unspecified)	nt	-3.3	1.1	-12.8	-1.3	-0.4	5.8	2.3	2.7	-0.3
CCOC(=O)c1c(C)[nH]c(C(=O)COC(=O)c2[nH]c(C)c(C(C)=O)c2C)c1C	-4.4%	3.7	-0.5	1.1	-6.7	6.4	nt	nt	nt	nt
Cc1ccccc1NC(=O)Cn1nnc2ccccc21	nt	5.0	0.3	9.9	-5.7	-0.1	11.1	11.1	-0.6	-0.1
C=CCNC(=O)C1CC(=O)N(c2ccc(OCC(=O)N3CCCC3)cc2)C1 (stereo unspecified)	nt	4.0	0.5	-0.3	-2.7	0.8	11.5	18.0	1.0	0.0
CCCCN(CC)CCNC(=O)Cn1cnc2sc(C)c(S(=O)(=O)N3CCOCC3)c2c1=O	23.9%	-2.2	0.5	-6.8	-5.3	-8.0	nt	nt	nt	nt
CCOc1cc2[nH]c(=S)n(Cc3ccc(C(=O)O)cc3)c(=O)c2cc1OCC	3.7%	7.1	-0.2	2.0	-4.7	-1.9	3.1	-6.5	0.7	-2.3
COc1ccc(/C=N/NC(=O)c2cc(OC)c(OC)c(OC)c2)cc1CN1CCc2cc(OC)c(OC)cc2C1C (stereo unspecified)	nt	-2.7	-0.3	-1.8	nt	28.6	-1.6	-4.7	6.5	8.2
CN1CCN(C(=O)c2ccc(-n3cccn3)nc2)CC1	-2.4%	2.7	1.9	6.5	-2.1	-16.7	12.9	14.3	2.3	-2.4
COC(=O)COc1ccc(C2NC(=O)NC(C)=C2C(=O)NCc2ccccc2)cc1OC (stereo unspecified)	4.0%	0.1	-0.5	4.8	-4.3	-8.9	13.0	18.5	-0.3	4.5
CCC1CCCCN1CCCNC(=O)CNC(=O)c1nn(-c2ccc(OC)c(Cl)c2)c(=O)c2ccccc12 (stereo unspecified)	nt	-7.2	0.6	-5.6	5.0	28.2	1.1	2.0	0.2	2.3
O=C(C1=C(O)C(=O)N(CCN2CCOCC2)C1c1cccc([N+](=O)[O-])c1)c1cccs1 (stereo unspecified)	nt	-3.6	-0.6	1.2	4.1	-2.2	7.0	10.2	2.2	1.7
C(CCCN1CCCCC1)CCN1CCCCC1	nt	2.9	-0.2	-21.2	-6.7	5.3	nt	nt	nt	-0.4
Cc1nccc2[nH]c(=O)c(C(=O)NC(C)CCc3ccccc3)cc12 (stereo unspecified)	-10.6%	-2.3	0.5	3.4	-22.2	1.4	nt	nt	nt	nt
CN(C)CCNC(=O)c1ccc2c(c1)NC(=O)c1ccccc1S2	-9.3%	7.1	-0.9	-9.0	-7.2	12.2	4.2	9.2	0.6	3.2
COc1cccc(N(CC(=O)NC2CCCCC2)C(=O)CCC(=O)Nc2nccs2)c1	nt	-0.6	0.5	4.3	-7.8	23.2	4.6	5.0	2.3	0.6
COc1ccc(N(CC(=O)Nc2ccc3c(c2)OCO3)S(=O)(=O)c2ccccc2)cc1OC	-2.5%	-2.0	1.5	-2.2	1.5	-17.6	6.4	3.0	3.8	3.3
COC(=O)c1sc2ccccc2c1-n1cccc1C(=O)C(=O)Nc1ccc(C)cc1	16.7%	3.4	-3.4	-8.7	0.8	-4.0	nt	nt	nt	nt

Structural class, the entries above containing a Cl atom (seven)
SMILES	Vif TR-FRET	RanGTP-Impb inh	A1 inh	Calb FLC	Beta apoptosis	T cruzi inh	rRNA inh HTS	rRNA inh HTS OD600	rRNA inh HTS RFP	MLL AF4-AF9 inh
CC1CCCC(NC(=O)COC(=O)c2sc3ccccc3c2Cl)C1C (stereo unspecified)	-0.9%	5.5	-0.5	-1.8	-3.1	-13.1	6.0	6.3	-1.4	-3.4
Cc1ccc(NC(=O)COc2ccccc2)cc1Cl	nt	0.3	0.9	1.3	-1.9	0.7	nt	nt	nt	nt
O=C(CCNC(=O)c1ccc([N+](=O)[O-])cc1)Nc1ccc(Cl)c(S(=O)(=O)N2CCOCC2)c1	-7.2%	nt	1.1	nt	0.9	nt	-9.6	-3.5	-3.8	?
COc1ccc(Cl)cc1S(=O)(=O)N1CCN=C1Cc1ccccc1	nt	-0.4	-1.2	2.5	1.8	-12.7	1.2	-2.0	0.1	1.5
C/C(=N\NC(=O)c1c(Cl)cnn1C)c1cccc(NC(=O)c2ccc(C)cc2)c1	9.0%	3.3	0.4	11.7	2.9	1.2	-5.4	-4.5	2.0	-0.1
Cc1cc(OC(=O)c2ccc(Cl)cc2Cl)c([N+](=O)[O-])c(=O)[nH]1	nt	2.0	0.2	-3.0	-1.7	-8.2	-1.4	7.0	-0.8	36.9*
CCC1CCCCN1CCCNC(=O)CNC(=O)c1nn(-c2ccc(OC)c(Cl)c2)c(=O)c2ccccc12 (stereo unspecified)	nt	-7.2	0.6	-5.6	5.0	28.2	1.1	2.0	0.2	2.3

Only part of the results is shown. The share of hits here may be higher or lower than overall.
